Screening results from PubChem.
UCH37 DUB inh: inhibitors of human deubiquitinating enzyme UCH37; Q9Y5K5; purified proteasome/UCH37, Ub-AMC cleavage fluorescence; inhibition, % (concentration not given with the values); 330,000 compounds, 0.33% hits; AID 588478;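 active = mean of two replicates above 20%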;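 also: 0% = compound-free wells with enzyme and 100% = wells lacking proteasome; stock transfer was 100 nL into about 20 µL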
Target sequence (Q9Y5K5 whole entry, looked up): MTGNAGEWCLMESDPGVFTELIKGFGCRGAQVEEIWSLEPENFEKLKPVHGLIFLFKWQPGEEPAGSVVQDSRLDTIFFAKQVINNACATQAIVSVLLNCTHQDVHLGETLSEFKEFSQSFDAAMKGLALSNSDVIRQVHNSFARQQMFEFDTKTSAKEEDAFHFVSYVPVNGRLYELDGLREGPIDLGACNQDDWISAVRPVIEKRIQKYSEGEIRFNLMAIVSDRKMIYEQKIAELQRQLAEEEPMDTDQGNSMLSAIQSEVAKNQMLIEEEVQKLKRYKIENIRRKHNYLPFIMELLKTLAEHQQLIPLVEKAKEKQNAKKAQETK
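Material: human UCH37 enzyme supplied as purified proteasome complex. Measure: % inhibition of Ub-AMC cleavage fluorescence. Medium: pH 7.4 Tris-HCl (50 mM) with ovalbumin, ATP-MgCl2, DTT. Times: 30 min preincubation with enzyme, 25 min cleavage at room temperature. Detection: AMC fluorescence intensity at 355/460 nm.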
FGF22 binding: shifts melting point of recombinant human FGF22; Q9HCT0; recombinant FGF22 thermal shift, SYPRO orange fluorescence; percent of sucrose octasulfate shift, DMSO zero; calls only at 9.99 µM; 340,000 compounds, 1.5% hits; AID 651658;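 active = melting point raised past a set limit in the mean and every replicate; inconclusive = no clear call; three in four hits are not shown here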
Target sequence (Q9HCT0 whole entry, looked up): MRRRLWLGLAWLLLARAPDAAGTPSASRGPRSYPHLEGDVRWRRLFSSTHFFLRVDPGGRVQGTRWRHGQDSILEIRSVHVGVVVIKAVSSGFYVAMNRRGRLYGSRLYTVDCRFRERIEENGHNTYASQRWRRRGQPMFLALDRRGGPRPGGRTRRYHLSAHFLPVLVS
MLL AF4-AF9 inh: MLL-AF4/AF9 protein interaction inhibition; P42568; AlphaScreen, biotin-AF4 peptide binding to FLAG-AF9; inhibition, % at 10 µM; 350,000 compounds, 0.47% hits;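 active = every replicate reaching a set inhibition limit, whatever the replicate mean, cut at about 25% in these data; inconclusive = mean inhibition reaches that limit but some replicates miss it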;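 also: 0% = plate neutral control median and 100% = total signal loss; the record names both 10 and 1 µM as test concentration; the first replicate is given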
Target sequence (P42568 whole entry, looked up): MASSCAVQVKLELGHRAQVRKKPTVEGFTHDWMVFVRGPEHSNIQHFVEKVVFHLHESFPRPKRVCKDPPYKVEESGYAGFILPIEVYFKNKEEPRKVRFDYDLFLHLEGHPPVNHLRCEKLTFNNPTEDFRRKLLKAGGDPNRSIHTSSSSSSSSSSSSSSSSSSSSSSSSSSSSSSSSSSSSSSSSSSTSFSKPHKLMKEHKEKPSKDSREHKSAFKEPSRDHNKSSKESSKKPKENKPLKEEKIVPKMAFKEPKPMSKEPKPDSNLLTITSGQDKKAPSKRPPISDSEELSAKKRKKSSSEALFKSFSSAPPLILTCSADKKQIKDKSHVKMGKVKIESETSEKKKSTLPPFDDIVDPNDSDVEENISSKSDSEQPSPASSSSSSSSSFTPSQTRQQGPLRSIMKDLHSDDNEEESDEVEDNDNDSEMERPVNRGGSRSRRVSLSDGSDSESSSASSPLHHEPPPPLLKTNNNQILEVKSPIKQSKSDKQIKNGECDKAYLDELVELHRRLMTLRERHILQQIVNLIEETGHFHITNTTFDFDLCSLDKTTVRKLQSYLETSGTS
RanGTP-Impb inh: disruptors of Ran-importin-beta complex formation – biochemical, FRET, CFP-Ran, YFP-importin-beta, homogeneous, primary screen; cell-free CFP-Ran/YFP-importin-beta FRET ratio; inhibition, % (test concentration not listed); 300,000 compounds, 1.1% hits; AID 2216;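 active = most replicates above 15%; inconclusive = exactly half above 15%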;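 also: 0% = DMSO wells and 100% = Ran loaded with GDP instead of GTP; wells of about 40 µL received 100 nL stock; the first replicate is given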
HNF4A DNA FP: change in binding of human HNF4 alpha to DNA. P41235. 360,000 compounds, 0.3% hits. activity change, % at 10 µM. HNF4a-FITC DNA binding, fluorescence polarization, 1 h. AID 1224865; in the data active = activity change above about 30%, passing the limit was not always enough;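 also: controls were the assay level and a saturating level of protein; the project sought stronger binding though the title names inhibitors; some compounds called inactive have numbers as strong as hits; positive values seem to mean higher polarization but the record does not say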
Vif TR-FRET: inhibitors of Vif binding to APOBEC3G peptide, primary screen, biochemical, TR-FRET, GST-Vif 1-94, biotin-A3G peptide, dose response retest (AID 1117319); TR-FRET GST-Vif / biotin-A3G peptide binding; higher % means a stronger effect; test concentration not given here; strong numbers were not always called active; inhibition, %, or IC50 in µM where a hit was titrated; 260,000 compounds, 0.57% hits;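 active = above the screen mean plus three standard deviations and confirmed in dose response; inconclusive = results disagree or hit not tested in dose response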;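 also: Vif residues 1-94 fused to GST binding biotinylated APOBEC3G peptide 110-148; 0% = full assay without inhibitor and 100% = GST in place of GST-Vif; retest series ran down from 100 µM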
E coli growth: blocks Escherichia coli growth | OD600, 23 h; stronger effect = lower value | OD600 absorbance (no concentration beside the values) | 330,000 compounds, 0.21% hits | AID 1053175;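 active = OD600 absorbance below the run mean of sample wells minus 3.6 SD, in any replicate, cut at about 0.56 in these data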;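 also: stock transfer was 300 nL into about 60 µL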
Active calls of the source: *; i = inactive; ? = inconclusive; . = no result given; & = joins results of further samples. This is a subset; count on the stated rates, not on these rows.

SMILES	UCH37 DUB inh	FGF22 binding	MLL AF4-AF9 inh	RanGTP-Impb inh	HNF4A DNA FP	Vif TR-FRET	E coli growth
CCCc1cc(=O)[nH]c(SCC(=O)N2CCN(S(=O)(=O)c3ccc4ccccc4c3)CC2)n1	1.6	.	.	0.0	-1.3	.	0.641
O=C(c1cc(C(=O)N2CCOCC2)c2nc3ccccc3n2c1)c1cc(Cl)cc(Cl)c1O	9.4	i	27.3*	1.1	-0.9	.	0.678
O=C(Nc1cc(S(=O)(=O)Nc2ccc(Cl)cc2)ccc1O)c1ccc(S(=O)(=O)N2CCCCCC2)cc1	2.9	i	0.2	4.4	-11.5	?	0.736
CSc1cc(C)nc(NC(C)=O)n1	-1.6	.	.	5.4	3.0	3.5%	0.677
CCCCNC(=O)C1(C)CCCCN1C(=O)c1c(C)noc1C (stereo not drawn)	.	i	-4.0	.	-2.6	.	.
O=c1cc(-c2ccc(O)cc2)oc2ccc(O)cc12	5.2	i	.	1.0	-5.7	28.2%	0.666
O=C(C1CCC(Cn2c(=S)[nH]c3ccccc3c2=O)CC1)N1CCOCC1 (stereo not drawn)	2.6	.	.	3.5	-1.4	-1.7%	0.681
N#Cc1cc([N+](=O)[O-])ccc1NC(=O)CSc1n[nH]c(=O)[nH]c1=O	3.9	.	-0.8	.	18.8	0.2%	0.727
CCC1(C(=O)OC)NC(c2ccco2)C2C(=O)N(c3ccc(C)cc3)C(=O)C21 (stereo not drawn)	3.5	.	.	4.1	2.9	28.1%	0.745
c1ccc(C2CCCN(Cc3nc(CC4CC4)no3)CC2)cc1 (stereo not drawn)	2.3	i	2.2	2.0	0.1	4.2%	0.734
O=C(Nc1ccncc1)c1c(F)cccc1F	0.0	.	.	5.5	3.0	5.9%	0.666
CC(=O)Nc1ccc(Oc2ccc([N+](=O)[O-])cc2Cl)cc1	2.6	i	2.5	2.7	2.8	-2.6%	0.661
Cc1ccc(Cn2c(CN3CC(C)OC(C)C3)nc3c2c(=O)[nH]c(=O)n3C)cc1 (stereo not drawn)	0.6	.	.	1.6	1.1	19.4%	0.75
O=[N+]([O-])c1cc(Br)cc(/C=N/n2cnnc2)c1O	.	i	-1.4	2.8	-1.2	-7.3%	.
COc1ccc(C2C(C(=O)NCc3cccnc3)c3cc(OC)c(OC)cc3C(=O)N2C)cc1 (stereo not drawn)	3.8	.	.	5.1	-1.4	18.5%	0.675
CCc1nn(CCCC(=O)NC(C)c2ccccc2)c(=O)c2cc3occc3n12 (stereo not drawn)	2.0	i	-11.0	4.1	0.1	-2.5%	0.677
Oc1ccc(C[C@H]2CNC(=S)N2CC2CCCN2C[C@H](Cc2ccc(O)cc2)N2C[C@H](Cc3ccccc3)N(CC3CCCCC3)C2=S)cc1 (stereo partly drawn)	.	i	3.2	.	0.0	0.6%	.
COc1cc2c(cc1NC(=O)C(C)Sc1cccc[n+]1[O-])oc1ccccc12 (stereo not drawn)	.	i	5.9	-2.5	3.3	-1.3%	.
CCc1nnc(NC(=O)CSc2nnc(CNc3ccc(F)cc3)n2C2CCCCC2)s1	3.5	i	-15.5	7.5	0.1	6.7%&-7.8%	0.662
O=C(CSc1nnc(-c2ccccc2)n1-c1ccc(Cl)cc1)NC1CCS(=O)(=O)C1 (stereo not drawn)	2.0	i	-2.6	-1.1	1.4	.	0.709

3 of the compounds above, with values under each structure.
Each structure is followed by: UCH37 DUB inh | FGF22 binding | MLL AF4-AF9 inh | RanGTP-Impb inh | HNF4A DNA FP | Vif TR-FRET | E coli growth
O=C(Nc1ccncc1)c1c(F)cccc1F
  0.0 | . | . | 5.5 | 3.0 | 5.9% | 0.666
CC(=O)Nc1ccc(Oc2ccc([N+](=O)[O-])cc2Cl)cc1
  2.6 | i | 2.5 | 2.7 | 2.8 | -2.6% | 0.661
Cc1ccc(Cn2c(CN3CC(C)OC(C)C3)nc3c2c(=O)[nH]c(=O)n3C)cc1 (stereo not drawn)
  0.6 | . | . | 1.6 | 1.1 | 19.4% | 0.75

The listing continues:
SMILES	UCH37 DUB inh	FGF22 binding	MLL AF4-AF9 inh	RanGTP-Impb inh	HNF4A DNA FP	Vif TR-FRET	E coli growth
CCOc1ccc(C(=O)NCc2ccccc2OC)cc1	2.9	.	.	-4.1	-1.5	-1.1%	0.704
COc1cc(OC)cc(C(=O)N2c3ccc(F)cc3CCC2C)c1 (stereo not drawn)	6.3	.	.	-4.0	1.7	-4.8%	0.777
COC(=O)C/C(N)=C(\C#N)C(=O)OC	2.2	i	-1.4	5.1	1.9	.	0.61
CCC(C)n1c(OC)nc2c1c(=O)n(C)c(=O)n2C (stereo not drawn)	2.1	i	0.6	4.2	1.9	-5.0%	0.716
CCCn1ncc(CN2CCN(Cc3ccsc3)C(CCO)C2)c1C (stereo not drawn)	0.2	i	-1.1	?	-1.4	9.7%	0.741
Nc1cc(=O)[nH]c(SCC(=O)Nc2ccc([N+](=O)[O-])cc2)n1	7.7	i	-18.1	-3.6	-3.5	7.3%	0.716
Cc1nc(N2CCN(S(=O)(=O)c3ccc(F)cc3)CC2)c2c(-c3cccs3)csc2n1	-1.1	i	4.1	-0.8	2.3	-2.4%	0.712
OCCN1CCN(c2ncnc3c2ncn3[C@H]2CN(Cc3cccc(C(F)(F)F)c3)C[C@@H](CO)O2)CC1	.	i	2.3	.	3.5	.	.
O=S(=O)(Nc1ccccc1N1CCCC1)c1ccccc1C(F)(F)F	.	i	5.5	.	0.1	1.5%	.
O=C(NCc1ccco1)C(=O)c1cn(CC(=O)N2CCCC2)c2ccccc12	3.0	i	-1.4	.	1.2	1.7%	0.713
CC(=O)c1cccc(NC2c3ccccc3C(=O)N2Cc2ccco2)c1 (stereo not drawn)	-1.6	i	-45.8	-0.7	-0.6	.	0.653
Cc1ccc(NC(=O)c2ccc(S(=O)(=O)NCC3CCCO3)cc2)cc1 (stereo not drawn)	4.9	.	.	?	-0.2	-4.5%	0.642
N#C/C(=C\c1ccc(O)c(Br)c1)C(=O)NCc1ccccc1	6.0	.	-0.9	42.8*	5.8	30.3%	0.665
O=C(CCn1nc(-c2ccc(Cl)cc2)ccc1=O)NCCCN1CCCCCC1	-1.8	.	.	-1.2	3.6	-3.9%	0.726
Clc1ccc(Cn2ncc3c(N4CCCCC4)ncnc32)cc1	3.5	.	.	8.4	0.7	3.5%	0.767
CC(=O)c1c(C)[nH]c(C(=O)CSc2nnc(-c3ccccc3)n2Cc2ccc3c(c2)OCO3)c1C	2.7	.	.	2.7	1.0	-2.2%&4.9%	0.771
COc1ccc(C(=O)/C=C/Nc2ccccn2)cc1	-38.7	.	.	.	1.0	13.8%	0.647
CC1(C(=O)NS(=O)(=O)Cc2ccccc2C(F)(F)F)CCN1C(=O)Cc1ccsc1 (stereo not drawn)	.	i	-3.9	.	1.7	.	.
CC(C)(C)c1cc(C2COC(=O)COCCOCC(=O)OCCOCCO2)cc(C(C)(C)C)c1O (stereo not drawn)	.	i	-3.0	.	-2.7	.	.
Cc1cc(SCC(=O)Nc2cccnc2Cl)nc2ccccc12	2.7	i	-2.8	0.1	0.4	-116.6%	0.75
Cc1cccc(NS(=O)(=O)c2ccc3nc(-c4ccccc4)[nH]c3c2)c1C	1.1	i	-6.2	2.0	0.2	-16.1%	0.745
Cc1ccc(S(=O)(=O)N2CCN(CC(O)COc3ccccc3)CC2)cc1 (stereo not drawn)	1.3	i	0.4	-5.6	3.5	.	0.695
Cc1c(/C=N/NC(=O)CNc2ccccc2)c2ccccn2c1C(=O)c1ccccc1	.	.	.	7.0	-1.0	14.7%	.
O=S(=O)(Nc1nccs1)c1ccc(Cl)cc1	-0.3	.	.	-0.2	3.8	8.6%	0.698
Cc1ccc(NC(=O)CSc2nn(-c3ccc(Cl)cc3)c(=S)s2)cc1S(=O)(=O)N(C)C	2.7	i	-14.8	-2.1	5.3	.	0.699
O=C(CCN1C(=O)S/C(=C\c2cccs2)C1=O)NC1=NCCS1	6.1	.	.	3.0	-3.1	25.6%	0.695
O=C(CN1C(=O)C2C3C=CC(C3)C2C1=O)Nc1nncs1 (stereo not drawn)	5.2	.	-2.4	4.2	1.6	4.1%	0.684
O=C(CCSCCc1ccccn1)Nc1ccc(Cl)cn1	0.6	.	.	-5.7	4.3	14.9%	0.703
Cc1cccc2c3c([nH]c12)CCNC3	4.6	i	6.5	2.7	-1.7	-4.0%	0.659
Cc1ccc2nc(-c3ccccc3)c(-c3ccccc3)nc2c1	-22.7	i	-1.2	-3.7	-0.5	.	0.681
CCOC(=O)N1CCC(NC(=O)c2cc(C(=O)NC3CCCC3)ccc2CO)CC1	1.0	i	9.9	2.6	2.6	0.3%	0.68
CCOc1nc(C)cc(C)c1S(=O)(=O)c1cccc(C)c1	4.1	.	.	?	.	6.4%	0.726
COc1ccc(F)cc1C(=O)C1CCCN(C(=O)c2ocnc2C)C1 (stereo not drawn)	1.2	i	1.6	?	0.8	-3.0%	0.681
CCCCn1nnnc1C(c1cccc(OC)c1OC)N1CCN(C/C=C/c2ccccc2)CC1 (stereo not drawn)	.	i	6.2	.	7.7	.	.
Cn1c(CNC(=O)c2ccco2)nnc1SCCOc1ccccc1	0.8	i	0.3	-2.9	1.2	4.8%	0.666
N#Cc1ccc(CSc2nnc3ccccn23)cc1	-0.2	i	-1.3	3.9	-1.9	-1.8%	0.685
COc1ccc2[nH]c3ccc(OC)cc3c2c1	-11.9	.	.	1.6	3.2	?	0.719
CCOc1cc(C2C(C(=O)N3CCCCC3)=C(C)NC3=C2C(=O)CC(C)(C)C3)ccc1O (stereo not drawn)	-29.3	.	.	-1.1	7.1	0.7%	0.676
Cc1ccc(Cl)cc1N1CCN(S(=O)(=O)c2c(C)noc2C)CC1	0.9	i	9.0	1.8	-0.3	.	0.737
COC(=O)CSC1=C(C#N)C(c2ccccc2)CC(=O)N1 (stereo not drawn)	0.9	i	7.2	1.0	2.1	67.5%	0.605
COc1ccc(S(=O)(=O)CCC(=O)N(C)c2ccc(OC)cc2OC)cc1	2.2	.	.	-2.7	0.0	14.2%	0.685
CCOC(=O)CCCc1ccc(/C(C)=N/NC(=S)NC)cc1	.	i	7.4	3.8	6.8	-4.4%	.
COc1ccc(OC)c(NC(=O)Nc2nc(CN(C)C)cs2)c1	.	i	9.2	.	-2.3	.	.
Cc1nn(CC(=O)N2CCOCC2)c(=O)c2nn(-c3ccccc3)c(C)c12	1.6	i	-11.1	3.5	2.2	-6.2%	0.695
CCN(CC)CCN(C)C(c1cc2ccccc2o1)c1nnnn1C(C)(C)C (stereo not drawn)	.	i	1.0	.	6.8	.	.
COCCCn1ccc(O)c(Cc2ccc(F)cc2)c1=O	-1.2	.	.	6.4	-0.1	-5.7%	0.72
CC(c1ccccc1)C(CC(=O)O)C(=O)NC1CCCCC1 (stereo not drawn)	1.5	i	-11.9	5.6	-0.9	7.9%	0.731
COc1ccc(C(=O)N(C)C2CCN(C)CC2)cc1S(=O)(=O)Nc1cc(Cl)ccc1Cl	3.2	.	.	?	.	.	0.642
COc1ccc(CNC(=O)Nc2cc(C)ccc2C)cc1	0.0	i	0.0	-3.9	0.0	?	0.723
COc1cc(C(=O)NCCC(=O)NCc2ccc3c(c2)OCO3)cc(OC)c1OC	3.5	.	.	.	-4.6	3.6%	0.654
CC1Sc2ccc(S(=O)(=O)N3CCN(c4cccc(Cl)c4)CC3)cc2NC1=O (stereo not drawn)	0.6	i	-0.2	3.7	-8.6	-0.1%	0.708
O=C1CC(Sc2nnc(-c3ccccc3O)o2)C(=O)N1c1ccccc1 (stereo not drawn)	0.1	i	-0.2	3.2	-3.7	11.7%	0.643
Cc1ccccc1NC(=O)C1C2CCCC1C2c1ccccc1 (stereo not drawn)	1.2	.	.	1.8	-4.0	2.2%	0.695
